Screens as filed in PubChem BioAssay.
TRPML1 agonist – agonists of human TRPML1 channel; activation, % (test concentration not listed); AID 624414; TRPML1-expressing cells, Ca2+ dye fluorescence, FDSS; host cell line not named in the record; reference of the full effect not given here; hit rate 0.12% among 410,000; in the data active = activation above about 50%; inconclusive = about 30% to 50%; inactive = below about 30%; note: 0% is about no effect; the text of the record puts the active cut at 80%
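Kinetic FDSS Ca2+ read in Tet-induced TRPML1-DL cells (ABD Ca8 dye plus quencher, 45-90 min RT loading): baseline, then compound, then 110 s agonist window; EC80 agonist 54-4 at 4uM final added afterwards for a 110 s antagonist window.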
TRPML1 blocker – human mucolipin-1 channel inhibition; activity change, negative = inhibition, % (test concentration not listed); Q9GZU1; hit rate 0.02% among 390,000; AID 624415; TRPML1-inducible cells, Ca2+ dye fluorescence, FDSS; active compounds read low; inhibition of EC80 agonist-evoked calcium signal; in the data active means activity change below about -50%; inconclusive means about -30% to -50%; inactive means above about -30%;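 note: stimulus is agonist 54-4 at its EC80 concentration; % is set by controls: 0 for no effect and ±100 for the full control effect; compound concentration not given in the record; the text of the record puts the active cut at -80%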
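TRPML1-DL cells, Tet-induced overnight (~16 h, 37 °C) at 1,500 cells/well, were loaded with Ca8 no-wash dye plus quencher for 45-90 min at room temperature. Compounds were pinned during FDSS kinetic reading; agonist 54-4 at EC80 (4 uM final) then added.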
ClpP mod – qHTS Assay for Activators of ClpP. purified B. subtilis ClpP, FRET peptide cleavage, 20 min. AID 651965, 2013. hit rate 1.9% among 340,000. Potency, µM (top dose mostly 57.5 µM), for the others: top-dose activity change, negative = active; active = well fitted falling curve with a large enough effect; inconclusive = small, poorly fitted or top-dose-only effect; inactive = no such curve, though single readings can be large or run the other way; note: potency is the fitted concentration of half-maximal effect; the source files actives as falling curves though it sought activators and does not explain the sign; nearly all actives have a fitted effect of over 65% in size; many hits overshoot -100%
Target sequence (P80244 whole entry, looked up): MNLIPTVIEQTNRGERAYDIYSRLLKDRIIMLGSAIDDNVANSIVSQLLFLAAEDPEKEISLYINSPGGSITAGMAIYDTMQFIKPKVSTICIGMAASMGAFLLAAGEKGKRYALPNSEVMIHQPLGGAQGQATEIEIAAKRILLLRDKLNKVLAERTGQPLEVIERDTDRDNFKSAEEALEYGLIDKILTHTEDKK
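Buffer: 100 mM Tris/HCl pH8, 100 mM KCl, 0.05% low protease BSA, 2.5% glycerol, 0.01% Tween-20. ClpP 10 microg/mL final; 20 min RT; delta FRET normalized to ADEP and DMSO controls.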
Sfp PPTase inh – blocks B. subtilis Sfp PPTase activity. Q9F4F7. Biochemical Sfp PPTase activity, qHTS. hit rate 3.5% among 310,000. AID 1490. Potency, µM, for inactives: max response, negative = inhibition, usual class: inhibitors; active = well fitted inhibition curve with a large enough effect; inconclusive = small, poorly fitted or top-dose-only effect, or another doubt; inactive = no such curve, though single readings can be large or run the other way;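 note: the enzyme is Sfp with the accession as filed and its product quenches rhodamine fluorescence; potency is the fitted concentration of half-maximal effect; 0% = enzyme reaction without inhibitor and -100% = no enzyme wells; top concentration of the series not given in the record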
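After 15 min at room temperature with compound, 15 nM Sfp received 5 uM rhodamine-CoA plus 12.5 uM BHQ-2-ybbR (50 mM Hepes pH 7.6, 10 mM MgCl2). Rate came from the fluorescence difference over 30 min, ex 525/em 598 nm.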
TRPV1 PAM – human TRPV1 potentiation; Q8NER1; TRPV1-expressing cells, Fluo-8 calcium influx, capsaicin EC20 potentiation; host cell line not named in the record; control for the full effect not named in the record; potentiation, % at 8.33 µM; hit rate 0.02% among 320,000; active means potentiation above 80%; inconclusive means 30% to 80%; inactive means below 30%; note: 0% is about no effect
Target sequence (Q8NER1 whole entry, looked up): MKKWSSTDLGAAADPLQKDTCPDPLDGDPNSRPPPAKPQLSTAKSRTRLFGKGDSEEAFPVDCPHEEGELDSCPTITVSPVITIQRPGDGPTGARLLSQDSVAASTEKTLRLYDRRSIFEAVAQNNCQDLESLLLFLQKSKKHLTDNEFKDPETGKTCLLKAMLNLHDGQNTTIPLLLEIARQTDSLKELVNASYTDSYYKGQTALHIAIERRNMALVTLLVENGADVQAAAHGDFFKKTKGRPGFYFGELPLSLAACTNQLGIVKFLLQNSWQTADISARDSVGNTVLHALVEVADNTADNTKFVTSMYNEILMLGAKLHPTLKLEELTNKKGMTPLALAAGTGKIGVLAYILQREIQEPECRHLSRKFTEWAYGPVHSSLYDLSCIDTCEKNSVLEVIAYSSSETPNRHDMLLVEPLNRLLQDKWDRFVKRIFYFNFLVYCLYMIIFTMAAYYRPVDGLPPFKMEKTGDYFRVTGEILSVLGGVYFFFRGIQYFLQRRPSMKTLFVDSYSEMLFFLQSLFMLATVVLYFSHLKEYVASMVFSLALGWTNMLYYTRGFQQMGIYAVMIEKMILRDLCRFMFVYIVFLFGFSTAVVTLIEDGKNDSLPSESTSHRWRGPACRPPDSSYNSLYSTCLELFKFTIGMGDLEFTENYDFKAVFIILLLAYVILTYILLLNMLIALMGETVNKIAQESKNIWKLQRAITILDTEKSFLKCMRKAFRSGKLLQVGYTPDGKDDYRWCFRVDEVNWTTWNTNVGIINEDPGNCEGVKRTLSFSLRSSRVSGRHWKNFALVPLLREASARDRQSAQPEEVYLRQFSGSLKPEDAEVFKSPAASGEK
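Fluo-8 calcium influx in TRPV1-expressing cells, kinetic read (ex 480/em 520 nm). Compound added and read 3 min for agonist activity, followed by capsaicin at EC20 final and 2 min further read for enhancement.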
Menin-MLL FL inh – menin-MLL binding inhibition, fluorescein peptide; Fluorescence polarization, fluorescein-MLL peptide displacement from menin; FP activity change, % at 61.4 µM; AID 1766; 290,000 tested, under 10 active; inconclusive = falling polarisation curve, or a change in total fluorescence; inactive = total fluorescence flat and polarisation flat or rising; no compound was filed as active; the % refers to the polarisation; negative = inhibition;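 note: % of control where 0% means no effect; inhibitors lower the polarisation; unlabelled MLL peptide was the positive control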
PINK1 expr mod – changes PINK1 expression; PINK1 immunofluorescence, high-content cytometry, 24 h; Potency, µM (top dose mostly 76.6 µM), inactives show top-dose activation (PINK1 increase), actives largely listed as activators; hit rate 0.2% among 410,000; AID 624263; active = well fitted activation curve with a large enough effect; inconclusive = small, poorly fitted or top-dose-only effect; inactive = flat fitted curve, though single readings scatter; cell line not stated here;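 note: potency is the fitted concentration of half-maximal effect; % of control where 0% means no effect; nearly all actives have a fitted effect of over 65% in size; a mitochondrial uncoupler was the plate control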
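Readout is PINK1 immunofluorescence, quantified alongside mitochondrial, cell and nuclear markers by laser-scanning microplate cytometry. Cells from a stable line were exposed to compound titrations (5 concentrations) for 24 hours, with CCCP controls.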
Starred values were filed as active, the others as inactive; ? = inconclusive; . = no result given; & = joins results of further samples; [ ] = remark or other dose. The order is random; any-hit rate near 4.4%.

#	SMILES	Sfp PPTase inh	ClpP mod	TRPV1 PAM	Menin-MLL FL inh	TRPML1 agonist	PINK1 expr mod	TRPML1 blocker
1	CC(CC1C(C#N)=C(N)OC2=C1C(=O)CCC2)c1ccccc1 (configuration not stated)	14%	-6.6%	-1	11	0.4	-1.0%	-10
2	Cc1cc(C(=O)NN=C2C3CC4CC(C3)CC2C4)c2ccccc2n1	4%	-1.0%	5	0.5	0.0	19%[38.3 µM]	19
3	N#Cc1c(N)n(-c2cccc(O)c2)c2nc3ccccc3nc12	9%	3.9%	?	-0.3	0.0	3.0%	-1
4	CC(NC(=O)c1ccco1)c1ccc2c(c1)OCO2 (configuration not stated)	11%	1.4%	3	.	-0.6	0.5%	-4
5	CCCCNC(=O)c1ccc2c(c1)N(CC)C(=O)CS2	11%	-0.5%	1	-0.1	-0.1	3.7%[38.3 µM]	-1
6	Cc1ccc(S(=O)(=O)NCc2c(-c3ccccc3)noc2C)cc1	2%	0.3%	-12	7.9	-0.1	1.4%	22
7	COc1ccc(/C=C/C(=O)Nc2nc(C)c(C(=O)N(C)C)s2)cc1	17%	-1.8%	-5	0.4	1.8	2.5%	7
8	CCCOc1ccc(/C=C/C(=O)O)cc1OC	17%	.	-5	-4.0	0.5	0.5%	-6
9	CCN(CC)CCNc1nc(-c2ccccc2)nnc1C(F)(F)F	?	1.1%	-9	5.4	-0.3	2.8%[38.3 µM]	-6
10	COCCCN1Cc2cccc(C(=O)O)c2C1=O	-5%	0.5%	-2	-0.2	-0.1	-0.3%	-6
11	Cc1ccc2c(c1)nnn2C1CCN(S(C)(=O)=O)CC1	6%	-2.3%	4	-0.8	-0.5	-1.6%	8
12	Cc1ccc(NC(=O)COC(=O)C2=COCCO2)c([N+](=O)[O-])c1	18%	.	2	0.4	0.0	0.6%	-17
13	C=CCn1c(O)c(/C=C2\C=NN=C2c2ccccc2)sc1=S	-16%	.	.	1.6	1.7	0.0%	-1
14	CCc1ccc([C@H]2[C@@H]3C(=O)C[C@@H]4C(=O)N(c5ccccc5)C(=O)[C@@H]4[C@@H]3CN2S(=O)(=O)c2ccc(C)cc2)cc1	.	0.3%	.	.	0.0	3.1%	-7
15	O=C(NCCc1ccccc1)c1c(F)cccc1F	16%	.	-15	6.4	-0.4	-2.1%	12
16	CC1CCCN(C(=O)CSc2nnc(-c3ccc(O)cc3)o2)C1 (configuration not stated)	14%	.	4	0.3	-0.2	-1.1%	18
17	CCCCOc1ccc(/C=C(\C(=O)O)c2ccc(S(=O)(=O)N3CCCC3)s2)cc1	.	-0.8%	.	.	0.5	0.4%	13
18	CCCN(CCC)C(=O)C1CCCN(c2ncnc3c2nc2n3CCCCC2)C1 (configuration not stated)	.	-0.5%	.	.	0.2	2.7%	3
19	CCN(CC)S(=O)(=O)c1cccc(-c2nnc(SCc3nc4ccccc4s3)o2)c1	-1%	-7.8%	12	16	2.2	2.9%	36
20	CNC(=O)c1ccsc1NC(=O)CCS(=O)(=O)c1ccc(F)cc1	.	-3.2%	13	.	-0.2	1.3%	0
21	CC(C)CCOC(=O)C[N+](C)(C)CCOC1CC2CCC1(C)C2(C)C (configuration not stated)	2%	0.6%	-18	-5.7	1.0	6.5%	-9
22	Cc1cc(/C=N/Nc2ccc([N+](=O)[O-])cn2)c(C)n1-c1cccc(C(=O)O)c1	-26%	0.5%	2	20	.	1.5%	.
23	COc1ccc(C)cc1NC(=O)Cn1c(=O)oc2cc(S(=O)(=O)N3CCCCCC3)ccc21	.	0.1%	.	.	0.8	3.8%	-8
24	COc1cccc(CN(C)S(=O)(=O)c2cccs2)c1	8%	.	25	13	1.9	-2.0%	16
25	CCOc1ccc(N(CC(=O)Nc2cc(C)ccc2C)S(=O)(=O)c2c(C)[nH]c(=O)[nH]c2=O)cc1	13%	0.8%&2.0%	-2	-2.8	-0.5&1.0	1.2%&1.5%	-7&9
26	COC(=O)C(C)Oc1ccc2c3c(c(=O)oc2c1)CCCCC3 (configuration not stated)	-30%	142%	-10	0.9	-0.6	23%[38.3 µM]	-3
27	Cc1ccc(C)c(NC(=O)C2Cc3ccccc3CN2C(=O)OCc2ccccc2)c1 (configuration not stated)	13%	-7.4%	4	3.5	-0.2	1.4%	-8
28	COc1cc(C(=O)NC(=S)Nc2ccccc2N2CCCC2)cc(OC)c1OC	-27%	-3.5%	5	6.9	2.4	-2.2%	19
29	O=C(N/N=C/c1c(O)n(-c2ccc(Cl)cn2)c(=O)c2ccccc12)C1CC1	5%	-0.5%	13	29	-0.1	-0.7%	-10
30	COC(=O)c1cc(OC)c(OC)cc1NC(=O)c1ccc(Br)o1	.	-11%	.	.	0.4	-0.8%	-3
31	COc1ccc(Cc2nc3ccccc3n2CC(=O)N/N=C/c2ccc(C)cc2O)cc1OC	1%	4.2%	4	-0.8	-0.5	1.3%	9
32	COC1CC(C)C(OC)c2cc(O)cc(c2O)NC(=O)C(C)=CC=CC(C)C(OC(N)=O)C(C)=CC(C)C1OC (configuration not stated)	.	-1.6%	.	.	1.2	-2.1%	5
33	O=C(NCC1CCCO1)C1CCCN1C(=O)Nc1ccccc1[N+](=O)[O-] (configuration not stated)	15%	.	2	1.1	-0.7	1.7%	7
34	COc1ccc(C(=O)CN(C(=O)c2ccc(Cl)cc2)N2C(=O)C3CCCCC3C2=O)cc1 (configuration not stated)	5%	1.0%	10	-1.4	-0.5	5.1%[38.3 µM]	-8
35	Cc1cccc(OCC(=O)NCCNC(=O)c2cnccn2)c1	9%	.	1	-1.8	1.5	0.3%	-19
36	Cc1cc(=O)[nH]c(-c2ccc(C(F)(F)F)cc2)n1	13%	-1.0%	9	3.4	0.3	0.1%	-25
37	COc1cc(CCC(=O)Nc2ccc(C)c(S(=O)(=O)N3CCCCCC3)c2)cc(OC)c1OC	.	-0.5%	0	.	0.5	3.9%	-4
38	COc1ccccc1NC(=O)CSc1nnc(-c2ccco2)n1Cc1ccco1	6%	-0.5%	2	0.2	1.8	-2.6%	-1
39	COc1ccc(CNC(=O)C2(C)Cc3c(-c4ccc5c(c4)OCO5)ccnc3O2)cc1OC (configuration not stated)	.	3.8%	.	.	-1.2	5.0%	.
40	CC(C)(O)C#Cc1ccc(C(=O)N2CCN(c3ccccc3)CC2)cc1	13%	-2.9%	0	0.5	0.6	1.3%	18
41	COc1ccc(Cl)cc1-n1c(C)ccc1C	-9%	.	-6	6.4	0.0	0.7%	-4
42	O=S(=O)(NC1CCCCC1Oc1ccccc1)c1ccccc1 (configuration not stated)	14%	2.4%	-4	3.3	3.2	4.3%	9
43	CCn1c(NC(=O)c2ccco2)c(-c2ccccc2Cl)c(=O)c2ccccc21	18%	-0.4%	5	12	-0.3	1.9%	0
44	Cc1ccc(-c2ccc(CN3C(C)C(=O)N(Cc4cn(Cc5ccco5)nn4)CCS3(=O)=O)cc2)cc1 (configuration not stated)	.	-2.8%	.	.	-0.1	1.7%	-6
45	CCOc1cc2ccccc2cc1C(=O)Nc1ccccn1	.	.	.	.	2.0	6.8%	-8
46	CCOC(=O)C1=C(c2ccccc2)Nc2ncnn2C1c1cc(OC)ccc1OC (configuration not stated)	17%	-0.3%	-2	3.3	-0.8	7.6%[38.3 µM]	10
47	CCn1c(SCc2ccc(C)cc2)nnc1-c1nn(-c2ccccc2)ccc1=O	-3%	3.1%	0	0.9	0.7	0.0%	-11
48	CCCC(C)NC(=O)CN(c1ccc2c(c1)OCCO2)S(=O)(=O)c1ccccc1 (configuration not stated)	7%	2.8%	-12	-0.2	0.9	1.7%	-6
49	COc1ccc(/C=C/c2c([N+](=O)[O-])c(=O)n(C)c(=O)n2C)c(OC)c1	?	.	7	-0.1	-0.7	7.0%	2
50	COc1ccc(-c2c(=O)n(OC)c3ccccc3[n+]2[O-])cc1OC	56µM*	-1.6%	11	9.2	.	0.2%	.
51	CC(C)C(=O)Nc1ncc(Cc2ccccc2Cl)s1	20%	-1.2%	-14	-1.3	-0.5	6.9%	2
52	COc1ccc2c(c1)c1c(c(=O)n(-c3ccccc3C)c(=O)n1CC(=O)NCc1ccc(C)cc1)n2C	.	3.8%	.	.	0.4	2.4%	21
53	CC(NC(=O)CCOc1ccccc1)c1ccccc1 (configuration not stated)	6%	1.8%	1	1.8	-0.5	-1.7%	-14
54	Cc1ccc(C(O)c2cccnc2)o1 (configuration not stated)	16%	3.8%	0	-10	0.5	1.1%[38.3 µM]	1
55	COc1ccc(OC)c(C2/C(=C(/O)c3ccccc3)C(=O)C(=O)N2Cc2ccco2)c1 (configuration not stated)	2%	.	16	3.7	-0.6	0.0%	-6
56	NC(=O)C1CCN(C(=O)CN2CCCc3ccccc32)CC1	17%	1.0%	4	?	1.0	-0.6%	34

Continuation.
#	SMILES	Sfp PPTase inh	ClpP mod	TRPV1 PAM	Menin-MLL FL inh	TRPML1 agonist	PINK1 expr mod	TRPML1 blocker
57	Cc1cccc(N/C(N)=N/c2nc(C)c(Cc3ccccc3)c(=O)[nH]2)c1	24%	-0.6%	9	0.5	-0.4	11%	5
58	COc1ccc(-n2ccnc2SCC(=O)Nc2ccc(F)cc2F)cc1	.	-0.2%	.	.	0.6	24%	-6
59	Cc1ccc(C)n1-n1c(C)nc2scc(-c3ccccc3)c2c1=O	-6%	-0.7%	-9	-1.0	1.1	-1.6%	11
60	O=C(O)C(=Cc1ccncc1)c1cccc2ccccc12	.	-1.6%	.	.	-0.5	2.8%	-2
61	Cc1nnc2n(C)c(=O)c3c4c(sc3n12)COC(C)(C)C4	.	.	.	.	-0.2	0.7%	2
62	CCOC(=O)N1CCC(N2CCCC(C(=O)c3cccc(OC)c3)C2)CC1 (configuration not stated)	18%	-4.4%	-6	1.7	0.5	0.3%	1
63	Cc1ccccc1C(=O)O	.	-1.0%	13	.	0.7	-0.5%	-4
64	O=C(Nc1ccnn1C1CCN(Cc2cc(Cl)ccc2O)CC1)c1cccnc1	5%	-0.5%	1	2.9	0.5	0.4%	14
65	COCCCNC(=O)c1ccc(-c2c(C)noc2C)c2ccoc12	.	-23%	.	.	-0.9	4.4%	.
66	O=C(c1cc(C(=O)N2CCOCC2)c2nc3ccccc3n2c1)c1cc(Cl)cc(Cl)c1O	8%	12%	12	4.7	-0.8	1.2%	-8
67	Cc1ccc(C(=O)N2CCc3cc(CNC(=O)CSc4ccccc4)ccc32)cc1	.	-4.3%	.	.	1.9	2.0%	2
